Screening results (PubChem BioAssay)
Bst PK mod – modulators of Bacillus stearothermophilus pyruvate kinase; partly purified Bacillus stearothermophilus pyruvate kinase, luminescence ATP production; ribose 5-phosphate activator present at AC10; 51,000 tested, 1.2% active; Potency, µM; AID 361; in the data active means potency below about 11 µM; inconclusive means mostly about 12 µM to 25 µM; inactive means weaker than that;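 the screen sought inhibitors and activators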;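 also: potency is read from the fitted curve at half-maximal effect; scaled between full activation by ribose 5 phosphate and full inhibition by luteolin; about four in five hits inhibit and the cells do not say which; series up to 57 µM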
TsaE inh – YjeE (TsaE) inhibition, E. coli | purified YjeE, fluorescence polarisation of a bound ADP probe | P0AF67 | 71,000 tested, 0.05% active | Potency, µM; active = well fitted falling curve; inconclusive = weaker or top-dose-only fall, or a rising curve; inactive = flat or poorly fitted curve;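 also: top concentration of the series not given in the record; excess ADP was the control for the full effect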
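Purified YjeE (10 uM) with BODIPY Texas Red-labeled ADP probe (2 uM); compounds pin-transferred, 15 min at room temperature. Binding inhibition read as decreased fluorescence polarization; ADP titration as control.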
The depositor's hits bear a star; i = inactive; · = not tested or not shown. These rows are one share of the data; count on the stated rates, not on these rows.

Results follow in this order: Bst PK mod	TsaE inh
C/C(Cl)=C/Cn1c(SCc2ccc(Cl)cc2)nc2c1c(=O)[nH]c(=O)n2C
  >57	i
CCOC(=O)N1CCN(CC(=O)Nc2cc(C)nn2-c2nc3ccccc3s2)CC1
  ·	i
CC(C)(CSc1nncn1/N=C/c1ccco1)NS(=O)(=O)c1ccc(Cl)cc1
  i	i
CO[C@H]1C=CO[C@]2(C)Oc3c(C)c(O)c4c(O)c(c5c(c4c3C2=O)NC2(CCN(CC(C)C)CC2)N=5)=NC(=O)C(C)=CC=C[C@@H](C)[C@@H](O)[C@@H](C)[C@@H](O)[C@@H](C)[C@@H](OC(C)=O)[C@@H]1C
  ·	i
O=C(O)c1ccc2cccc(Cl)c2c1O
  i	i
Cc1cc(=O)oc(C)c1C(=O)NCC(C)C
  >26	·
O=C(c1ncn[nH]1)N1CCN(c2nc(-c3ccccc3)cs2)CC1
  ·	i
Cc1nc2cnc(N(C)C)nc2n(-c2ccccc2)c1=O
  ·	i
O=C(NCC1CCCO1)NC1(C(F)(F)F)Oc2ccccc2O1 (stereo not drawn)
  >57	i
O=C(Nc1ccc(Br)cc1)c1cnccn1
  ·	i
Cc1ccc(C)n1Cc1ccc(C(=O)O)cc1
  >26	·
Cc1cc(OC(=O)c2ccc(S(=O)(=O)N(C)C)cc2)cc(=O)o1
  >57	i
Cn1nnnc1SCC(=O)Nc1cc(C(C)(C)C)nn1-c1ccccc1
  >57	i
N#Cc1c(NC(=O)CSc2ncnc3c2cnn3-c2ccccc2Cl)sc2c1CCCC2
  >57	i
Cn1c(=O)[nH]c(=O)c2c1nc(CN1CCN(c3ccc(F)cc3)CC1)n2CCN1CCOCC1
  >57	i
CCCCn1c(SCC(=O)Nc2nnc(C(C)C)s2)nc2c1c(=O)n(C)c(=O)n2C
  >57	i
c1ccc(-c2nn3c(Cn4nnc5ccccc54)nnc3s2)cc1
  >57	i
COc1cccc(Nc2ncc3nc(-c4ccc(F)cc4)c(=O)n(C[C@H]4CCCO4)c3n2)c1
  ·	i
Cc1ccc(NC(=O)c2cc(-c3ccco3)on2)cc1C
  >57	i
CC1Cc2cc(/C(O)=C3/C(=O)C(=O)N(CCN4CCOCC4)C3c3cccc(O)c3)ccc2O1 (stereo not drawn)
  >57	i
O=C(Nc1cccc(Cl)c1Cl)c1ccncc1
  ·	i
COc1ccc(/C(O)=C2\C(=O)C(=O)N(Cc3ccco3)C2c2cc(OC)ccc2OC)cc1 (stereo not drawn)
  >26	·
CCOc1ccc(-c2nnc(SCc3nnc(-c4ccccc4)o3)n2-c2ccccc2F)cc1
  >57	i
CCC(C)C(=O)N1CCc2cc(-c3csc(N)n3)ccc21 (stereo not drawn)
  8.1*	i
COc1ccc(NC(C)=O)cc1NC(=O)CN1CCN(S(=O)(=O)c2ccc(C(C)C)cc2)CC1
  >57	i
O=C(CN1C(=O)c2ccccc2C1=O)Nc1nnc(C2CCCO2)s1 (stereo not drawn)
  >57	i
COC(=O)c1ccccc1S(=O)(=O)N(CCCO)Cc1cc2c(C)ccc(C)c2[nH]c1=O
  >57	i
CCc1cccc(NC2c3ccccc3C(=O)N2c2ccc(C)cn2)c1 (stereo not drawn)
  ·	i
COc1ccc(-c2ccc(SCC(=O)NCc3ccco3)nn2)cc1
  >57	i
O=C(CC12CC3CC(CC(C3)C1)C2)NCO
  ·	i
Cc1nnc(NC(=O)c2ccc3c(c2)C(=O)N(CC2CCCO2)C3=O)s1 (stereo not drawn)
  ·	i
O=C(c1ccc(F)cc1)C1CCN(C(=O)N2CCOCC2)CC1
  >57	i
CCSc1ccccc1C(=O)Nc1cc(C)on1
  >57	i
Cc1ccc(-c2nc(NC(=O)CSc3nnc(C)s3)ns2)cc1
  ·	i
Cc1cccc(C)c1NC(=O)CS(=O)CC(=O)NC1CCN(Cc2ccccc2)CC1 (stereo not drawn)
  >57	i
Cc1cc(Nc2cccc(Cl)c2C)n2ncnc2n1
  ·	i
Clc1ccccc1-c1nn2c(Cn3cnc4ccccc43)nnc2s1
  >57	i
O=C(Nc1ccc(Cl)cc1)N1CCC(c2nc(-c3cccs3)no2)CC1
  >57	i
Cc1cc(C(=O)CC#N)c(C)n1CC(F)(F)F
  >57	i
CCOC(=O)C1CCCN(C2CC(=O)N(c3cccc(C(F)(F)F)c3)C2=O)C1 (stereo not drawn)
  >57	i
CCn1cc(C2=NOC(C(=O)Nc3c(C)nn(Cc4ccc(F)cc4)c3C)C2)c(C)n1 (stereo not drawn)
  ·	i
CCCNc1nc2c(c(=O)[nH]c(=O)n2C)n1Cc1ccc(F)cc1
  ·	i
CCN(CCCNC(=O)CCn1c(=O)[nH]c2ccccc2c1=O)c1ccccc1
  >57	i
COc1ccc(N2CCN(Cc3nc(-c4ccc(Cl)cc4Cl)no3)CC2)cc1
  >57	i
COC(=O)c1cn(NC(=O)c2ccncc2)c(=O)c2ccccc12
  >57	i
O=C(NC1CCCCC1)C1CCN(c2nnnn2-c2ccccc2)CC1
  >57	i
C=CCn1c(=O)/c(=C/c2ccc(F)cc2)s/c1=C(\C#N)c1nnc2n1CCCCC2
  >57	i
COc1cc(S(=O)(=O)N2CCCCC2)ccc1NC=O
  ·	i
Clc1cccc(Nc2c3c(nc4ncnn24)CCC3)c1
  >57	i
CC(NC(=O)C1CCCN(S(=O)(=O)c2cnc[nH]2)C1)c1ccccc1 (stereo not drawn)
  ·	i
O=C(c1csc2c1CCCC2)N1CCN(c2ccccc2)CC1
  ·	i
O=C(c1ccccc1)N(c1ccccc1)C1C=CS(=O)(=O)C1 (stereo not drawn)
  >57	i
COC(=O)c1ccccc1NC(=O)Nc1cc(C)cc(C)n1
  >57	i
COc1cc(OC)c(C(=O)Nc2ccc(S(=O)(=O)Nc3ncccn3)cc2)cc1OC
  >57	i
COCCn1nnnc1C(c1cccs1)N1CCN(c2nc3ccccc3s2)CC1 (stereo not drawn)
  >57	i
CCC(C)NC(=O)CN(c1ccc2c(c1)OCO2)S(=O)(=O)c1c(C)n[nH]c1C (stereo not drawn)
  ·	i
O=C(O)Cc1nn(Cc2ccc(Br)cc2F)c(=O)c2ccccc12
  ·	i
c1cnc2c(c1)ccc1cccnc12
  ·	i
Cn1c(=O)cc(OCC(=O)Nc2ccccn2)c2ccccc21
  >57	i
c1ccc(CN2CCC3(CCCc4ccccc43)CC2)cc1
  ·	i

Continued.
Results follow in this order: Bst PK mod	TsaE inh
CCn1c(NCc2cc(OC)ccc2OC)nc2ccccc21
  >57	i
Cc1cccc(OCC(O)CN2C(C)(C)CC(O)CC2(C)C)c1 (stereo not drawn)
  >57	i
CCOC(=O)c1ccc2c(c1)nc(SCC(=O)N1CCCCC1)n2CC
  >57	i
CC(C(=O)N1CCN(C=O)CC1)N1C(=O)c2ccccc2C1=O (stereo not drawn)
  >57	i
C=CCNC(=O)Nc1ccc(OCC)cc1
  >57	i
O=C(NC1CCN(Cc2ccccc2)CC1)C1CCCN(c2nnc(-n3cccc3)s2)C1 (stereo not drawn)
  ·	i
CCSc1cc(C2C(C#N)=C(N)OC(C)=C2C(=O)OC)c(C)o1 (stereo not drawn)
  >57	i
CCCn1c(C)nc2c(N3CCCN(Cc4ccccc4)CC3)nc(C)nc21
  ·	i
COc1cc(SC)ccc1C(=O)NCCCOC(C)C
  >57	i
COc1cccc(CNC(=O)Cn2cc3c(n2)CCCCC3)c1
  ·	i
COc1cc2nc(CN(C)CC(=O)Nc3ccc(N4CCOCC4)cc3)[nH]c(=O)c2cc1OC
  ·	i
COCC(=O)N1CCC2(CCCN(C(=O)Nc3ccccc3)C2)CC1
  ·	i
CC(O)/C=C/c1cccc[n+]1C (stereo not drawn)
  >57	i
C=CCNC(=O)CN1CCC(O)(c2ccc(F)cc2)CC1
  >57	i
C[C@@]1(C(=O)O)NCCc2cc(O)c(O)cc21
  ·	i
O=P(COCCO)(c1ccccc1)c1ccccc1
  >57	i
COc1ccc(C(=O)Nc2ccc(S(=O)(=O)N3CCCCC3)cc2)cc1OC
  >57	i
O=C(CN1CCCCCC1)Nc1cccc2c1OCO2
  >57	i
Cc1cc(NS(=O)(=O)c2ccc(N)cc2)no1
  >11	i
C[C@@](N)(Cc1ccc(O)cc1)C(=O)O
  ·	i
C[C@@H](C(=O)Nc1ccc2ccccc2c1)[C@H]1C[C@]1(C)[C@H](NS(=O)(=O)c1ccc2ccccc2c1)c1ccccc1
  ·	i
Cc1ccc(C)n1C1CCS(=O)(=O)C1 (stereo not drawn)
  >57	i
CC1=CC(=C2C(=O)c3ccccc3C2=O)C=C(C)O1
  >57	i
CCOc1ccccc1NC(=O)Cn1cnc2c(cnn2-c2ccc(C)c(C)c2)c1=O
  >57	i
CC1CCc2c(sc(N)c2C(N)=O)C1 (stereo not drawn)
  ·	i
O=C(Nc1ccn(Cc2ccc(Cl)cc2)n1)c1ccc2c(c1)OCO2
  >57	i
N#Cc1cccc(-c2nc(N3CCNCC3)c3ccccc3n2)c1
  ·	i
COC(=O)CS(=O)(=O)c1ccc2c(c1)CC(=O)N2
  >57	i
O=C(Nc1ccc2nn(-c3ccccc3)nc2c1)c1cccs1
  >57	i
CNC(=O)CC(C(=O)O)c1ccc(OC(C)C)cc1 (stereo not drawn)
  >26	·
Cc1cc(C)n2nc(SCc3cc(=O)n4ccccc4n3)nc2n1
  >57	i
COc1ccccc1NC(=O)c1cc(S(=O)(=O)N2CCC3(CC2)OCCO3)ccc1F
  >57	i
O=S1(=O)N=C2CCCCCN2C(c2ccncc2)N1 (stereo not drawn)
  >57	i
N#CC(C(=O)CCN1C(=O)C2CC=CCC2C1=O)c1nc2ccccc2[nH]1 (stereo not drawn)
  >57	i
CCCCOc1ccc(Cl)cc1CSc1nnc(CC)n1N
  ·	i
CCN1CCN(c2nc(SC)nc3sc4c(c23)CC(C)(C)OC4)CC1
  >57	i
Cc1cc(C)n(-c2ccc(C(=O)NC3=NCCS3)cc2)n1
  ·	i
CCN1CCN(C(=O)CN(C)S(=O)(=O)c2ccc(OC)cc2)CC1
  >57	i
Nc1c(N2CCCCC2)c(=O)[nH]c(=O)n1-c1ccccc1
  >57	i
CCC(=O)Nc1cccc(NC(=O)c2ccc3c(c2)OCO3)c1
  ·	i

A different layout for part of the listing above.
> Cc1cc(Nc2cccc(Cl)c2C)n2ncnc2n1
  Bst PK mod: · | TsaE inh: i

> Clc1ccccc1-c1nn2c(Cn3cnc4ccccc43)nnc2s1
  Bst PK mod: >57 | TsaE inh: i

More results
Results follow in this order: Bst PK mod	TsaE inh
Cc1cccc(-n2c(CCN3C(=O)c4ccccc4C3=O)nc3ccccc3c2=O)n1
  >57	i
O=C(NCCN=C1NS(=O)(=O)c2ccccc21)c1ccc(S(=O)(=O)N2CCOCC2)cc1
  >57	i
CCOC(=O)/C=c1\s/c(=C\c2ccccc2OC)c(=O)n1CC(=O)N1CCOCC1
  >57	i
Cc1cc(C)n2nc(Nc3ccccc3)cc2n1
  i	i
N#Cc1c(NC(=O)CSCC(=O)O)sc2c1CCCC2
  >57	i
CSc1cccc(NC(=O)C2CCCN(S(=O)(=O)c3ccc(F)cc3)C2)c1 (stereo not drawn)
  >57	i
Cc1nc2cnc(Nc3ccccc3)nc2n(C2CC2)c1=O
  ·	i
CCOC(=O)c1[nH]nc2c1C(=O)N(CC)C2=O
  >57	i
O=C(CSc1nnc(COc2ccccc2)o1)NCCc1ccccc1
  >57	i
CCOc1ccccc1NC(=O)CSc1nc2cccnc2n1C
  >57	i
NCCC[C@H](N)CC(=O)N[C@H]1CNC(=O)[C@@H]([C@@H]2C[C@H](O)N=C(N)N2)NC(=O)/C(=C/NC(N)=O)NC(=O)[C@@H](CO)NC(=O)[C@@H](CO)NC1=O
  ·	i
O=C(NCCN1C(=O)C2C3C=CC(C3)C2C1=O)Nc1ccccn1 (stereo not drawn)
  ·	i
O=C(CN1CCC(n2nnc3cc(F)ccc32)CC1)Nc1ccc2c(c1)CCC2
  >57	i
CC(CCO)Nc1nc2c(c(=O)n(C)c(=O)n2C)n1Cc1cccc(Br)c1 (stereo not drawn)
  >57	i
CCCOc1ccccc1N1C(=O)CC(N2CCOCC2)C1=O (stereo not drawn)
  ·	i
CCOC(=O)c1ccc(Nc2ccc(-c3ccc(OC)c(OC)c3)nn2)cc1
  >57	i
Cc1nc(SCC(=O)Nc2cc(C)on2)c2c3c(sc2n1)CCCC3
  >57	i
Cc1cc(Cl)ccc1OCCCC(=O)Nc1cccnc1
  >57	i
Cc1cccc2sc(N)nc12
  ·	i
CN1CCN(c2ncc3nc(-c4ccc(Cl)cc4)c(=O)n(Cc4ccc(F)cc4)c3n2)CC1
  ·	i
N[C@@]12CCc3nonc3[C@]1(O)CC(c1ccccc1)=[N+]2[O-]
  >57	i
Cc1ccc(C(=O)C2CCN(CC(=O)Nc3ccc4c(c3)OCCO4)CC2)cc1
  >57	i
Clc1c(-c2nnc3n2CCC3)sc2ccccc12
  ·	i
CNC(=O)C1CCCN1S(=O)(=O)c1ccc(OC)cc1 (stereo not drawn)
  >57	i

Profiles, looked up by structure. Order of values: Bst PK mod	TsaE inh
Cc1ccc(C(=O)C2CCN(CC(=O)Nc3ccc4c(c3)OCCO4)CC2)cc1 is listed as >57	i
Clc1c(-c2nnc3n2CCC3)sc2ccccc12 is listed as ·	i
CNC(=O)C1CCCN1S(=O)(=O)c1ccc(OC)cc1 (stereo not drawn) is listed as >57	i
